Beta2AR agonist – activates human beta-2 adrenergic receptor causing internalization | P07550 | Am2.2-beta2AR cells, FAP receptor internalization, flow cytometry; reference of the scale not given here | response, % (no concentration beside the values) | actives 0.43% (n = 340,000);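 active means response above a set limit, near 3 SD of response in nonfluorescent compounds, cut at about 42% in these data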;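 further: stock transfer was 100 nL into about 11 µL; a reference agonist was the positive control; negative values mostly stem from fluorescent compounds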
Target sequence (P07550 whole entry, looked up): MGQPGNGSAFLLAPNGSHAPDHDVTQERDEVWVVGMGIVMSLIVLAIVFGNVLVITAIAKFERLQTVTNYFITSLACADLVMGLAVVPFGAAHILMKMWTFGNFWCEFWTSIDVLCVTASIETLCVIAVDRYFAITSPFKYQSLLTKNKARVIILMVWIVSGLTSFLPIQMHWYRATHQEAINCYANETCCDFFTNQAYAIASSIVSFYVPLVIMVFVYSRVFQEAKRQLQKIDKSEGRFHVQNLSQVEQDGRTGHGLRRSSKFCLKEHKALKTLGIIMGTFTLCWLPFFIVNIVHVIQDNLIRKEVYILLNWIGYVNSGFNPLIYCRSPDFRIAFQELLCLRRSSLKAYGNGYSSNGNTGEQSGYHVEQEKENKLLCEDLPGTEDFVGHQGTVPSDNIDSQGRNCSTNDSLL
A1 inh – inhibitors of the anti-apoptotic protein A1, read as caspase activation; MEF A1-2A-BIM cells, Caspase-Glo 3/7 luminescence, 3 h; percent of clofoctol response, vehicle zero; actives 0.066% (n = 330,000); caspase activation, % (no concentration beside the values);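 active means over half of replicate activation scores above 10%, or exactly half above 10 with the replicate mean above 10; inconclusive means replicate mean below 10 yet half the replicates above 10; inactive means over half of replicates below 10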;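 further: wells of about 30 µL received 50 nL stock; many hits fall short of the cut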
UCH37 inh – human UCH37 deubiquitinating enzyme inhibition; purified proteasome/UCH37, Ub-AMC cleavage fluorescence; AID 588478; inhibition, % (test concentration not listed); Q9Y5K5; actives 0.33% (n = 330,000);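 active means mean of two replicates above 20%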;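 further: 0% = compound-free wells with enzyme and 100% = wells lacking proteasome; stock transfer was 100 nL into about 20 µL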
Target sequence (Q9Y5K5 whole entry, looked up): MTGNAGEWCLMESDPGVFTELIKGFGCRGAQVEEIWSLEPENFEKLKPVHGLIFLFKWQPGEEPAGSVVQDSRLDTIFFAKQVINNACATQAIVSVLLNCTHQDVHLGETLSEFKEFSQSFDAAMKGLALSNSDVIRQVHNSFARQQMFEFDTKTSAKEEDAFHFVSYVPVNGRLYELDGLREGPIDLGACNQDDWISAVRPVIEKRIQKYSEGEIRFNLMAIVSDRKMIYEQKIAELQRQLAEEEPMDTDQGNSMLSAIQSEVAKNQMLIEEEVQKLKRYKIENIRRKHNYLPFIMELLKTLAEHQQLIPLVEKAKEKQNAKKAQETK
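assay system = human UCH37 enzyme supplied as purified proteasome complex | amount = proteasome at 0.15 nM in the dispensed enzyme solution | schedule = 30 min compound-proteasome preincubation then 25 min substrate reaction, room temperature | measured by = fluorescence, ex 355 nm, em 460 nm | benchmarks = no-proteasome wells (full inhibition) and compound-free wells (no inhibition)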
RanGTP-Imp inh – disruptors of Ran-importin-beta complex formation – biochemical, FRET, CFP-Ran, YFP-importin-beta, homogeneous, primary screen. cell-free CFP-Ran/YFP-importin-beta FRET ratio. actives 1.1% (n = 300,000). inhibition, % (test concentration not listed);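 active means most replicates above 15%; inconclusive means exactly half above 15%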;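 further: 0% = DMSO wells and 100% = Ran loaded with GDP instead of GTP; wells of about 40 µL received 100 nL stock; the first replicate is given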
Beta cell apopt – blocks beta cell apoptosis; INS-1E cytokine-induced death, ATP luminescence, 48 h; percent of positive-control rescue, neutral wells zero; protection from apoptosis, % (no concentration beside the values); actives 0.8% (n = 300,000); AID 435005;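 active means all replicates at 75% or more, or half of them and the mean; inconclusive means half reach 75% but not the mean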;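 further: 0% = cytokine-treated negative control wells and 100% = positive control rescue; higher means more ATP so stronger rescue from cytokine killing; wells of about 40 µL received 100 nL stock; the first replicate is given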
LANA-H2B inh – blocks KSHV LANA binding to histone H2A/H2B; inhibition, % (test concentration not listed); actives 0.6% (n = 320,000); cell-free LANA-H2A/H2B peptide, fluorescence polarization; Q9QR71; in the data active means inhibition mostly above about 10%, no sharp cut-off; inactive means mostly below about 6.7%;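 further: stock transfer was 7.5 nL into about 10 µL; 0% = median of vehicle wells and 100% = median of positive control wells; one replicate is shown; the record names a cut of 25% in any replicate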
T cruzi inh – T. cruzi replication inhibition; T. cruzi beta-gal in NIH3T3, luminescence, 90 h; inhibition, % (no concentration beside the values); actives 1.4% (n = 300,000); AID 1885;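 active means mean inhibition across valid replicates above about 55%, limit read from the data; inconclusive means mean below that limit but half or more replicates reach it; inactive means mean below it, under half of replicates reach it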;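 further: signal also drops with host cell toxicity which is not excluded here; 0% = plate median of DMSO wells and 100% = zero luminescence signal; higher percent means less beta-gal luminescence so fewer parasites; stock transfer was 50 nL into about 50 µL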
Calb FLC – affects C. albicans growth with fluconazole | C. albicans CaCi-2 (fluconazole-resistant clinical isolate) + fluconazole, Alamar Blue growth, 48 h | growth inhibition, % (test concentration not listed) | actives 0.57% (n = 300,000);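 active means most replicates above 75%; inconclusive means exactly half above 75%; inactive means most below 75%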;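 further: all wells also contain fluconazole at 8 µg/ml as a sub-toxic cotreatment; 0% = median of DMSO wells and 100% = median of geldanamycin control wells; wells of about 8 µL received 7.5 nL stock; the first replicate is given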
An asterisk follows results filed as active. Compounds were not picked by outcome. Share with any hit: about 4.3%.

What do the screens show for `Cc1c(Cc2ccccc2)c(=O)oc2cc(OCC(=O)c3ccccc3)ccc12`?
Beta2AR agonist: 6; A1 inh: 0.2; UCH37 inh: -15; RanGTP-Imp inh: -0.8; Beta cell apopt: 9; LANA-H2B inh: 2.8; T cruzi inh: -12; Calb FLC: -5

What do the screens show for `COc1cccc2c1Oc1ncccc1N(C(=O)CCC(=O)NCc1ccc(F)cc1)C2`?
Beta2AR agonist: 4; A1 inh: 0.5; UCH37 inh: -0.4; RanGTP-Imp inh: 5.5; Beta cell apopt: -4; LANA-H2B inh: 1.0; T cruzi inh: 11; Calb FLC: 6

Results for COc1ccccc1NC(=O)CSc1nc2ccccc2cc1Cc1ccccc1 ?
Beta2AR agonist: 13; A1 inh: 0.2; UCH37 inh: 2.9; RanGTP-Imp inh: -0.8; Beta cell apopt: 4; LANA-H2B inh: 0.3; T cruzi inh: 17; Calb FLC: -2

How did CC(NC(=O)c1cccc(S(=O)(=O)N2CCc3ccccc3C2)c1)c1ccco1 (stereo not given) do in these assays?
Beta2AR agonist: -1; A1 inh: 0.3; UCH37 inh: 0.9; Beta cell apopt: 1; LANA-H2B inh: -8.9

Results for O=C(NC1CCCCC1)c1sc(N2CCOCC2)nc1-c1ccccc1 ?
Beta2AR agonist: -9; A1 inh: -0.2; UCH37 inh: -64; RanGTP-Imp inh: -2.4; Beta cell apopt: 1; LANA-H2B inh: 0.7; T cruzi inh: 9; Calb FLC: 2

How did CCC1(c2ccccc2)NC(=O)N(CC(=O)Nc2cc(Cl)ccc2N2CCOCC2)C1=O (stereo not given) do in these assays?
Beta2AR agonist: 3; A1 inh: -0.9; UCH37 inh: 4.7; RanGTP-Imp inh: 1.2; Beta cell apopt: -5; LANA-H2B inh: 6.2; T cruzi inh: 8; Calb FLC: -4

How did O=C(N/N=C/c1cccc(F)c1)NC1CCCCC1 do in these assays?
Beta2AR agonist: -6; A1 inh: -1.0; RanGTP-Imp inh: 2.0; Beta cell apopt: 0; LANA-H2B inh: 5.4; T cruzi inh: 13; Calb FLC: -13

Results for COc1cc(CC(NC(C)=O)C(=O)NC2CCN(S(=O)(=O)c3ccc(NC(C)=O)cc3)CC2)cc(OC)c1 (stereo not given) ?
Beta2AR agonist: -1; A1 inh: 0.8; UCH37 inh: 3.0; RanGTP-Imp inh: 0.4; LANA-H2B inh: 3.6; T cruzi inh: -7; Calb FLC: 1

Results for OCCN1CCN(CC(O)C(F)(F)F)CC1 (stereo not given) ?
Beta2AR agonist: 11; A1 inh: -0.1; UCH37 inh: 0.4; RanGTP-Imp inh: inconclusive; Beta cell apopt: -5; LANA-H2B inh: -0.1; T cruzi inh: -1; Calb FLC: 2

What do the screens show for `CCN(CC)Cc1c(C(=O)N/N=C/c2cccc(OCc3ccc(F)cc3)c2)nnn1-c1nonc1N`?
Beta2AR agonist: 3; A1 inh: 0.4; RanGTP-Imp inh: -0.1; Beta cell apopt: -4; LANA-H2B inh: -2.8; T cruzi inh: -20; Calb FLC: -1

What do the screens show for `COc1ccc(OC)c(NC(=O)COC(=O)/C=C/c2ccco2)c1`?
Beta2AR agonist: 1; A1 inh: 0.7; UCH37 inh: 0.9; Beta cell apopt: -4; LANA-H2B inh: -2.5

What do the screens show for `COc1ccccc1NC(=S)NC(=O)c1ccc(-c2ccc(Cl)cc2)o1`?
Beta2AR agonist: -10; A1 inh: -0.8; UCH37 inh: 7.0; RanGTP-Imp inh: -1.2; Beta cell apopt: 1; LANA-H2B inh: -1.3; T cruzi inh: 25; Calb FLC: 4

How did CC(C)CCNC(=O)C1CC(c2ccccc2[N+](=O)[O-])=NO1 (stereo not given) do in these assays?
Beta2AR agonist: 2; A1 inh: 1.3; UCH37 inh: 1.8; RanGTP-Imp inh: -4.2; Beta cell apopt: 0; LANA-H2B inh: 4.4; T cruzi inh: -13; Calb FLC: -16

What do the screens show for `COc1ccc(N(CC(=O)Nc2cc(OC)ccc2OC)S(C)(=O)=O)cc1`?
Beta2AR agonist: 0; A1 inh: -0.8; UCH37 inh: 3.7; RanGTP-Imp inh: 7.1; Beta cell apopt: -1; LANA-H2B inh: 1.2; T cruzi inh: 3; Calb FLC: -4

What do the screens show for `Cc1ccc(-n2c(C3CC3c3ccc(Cl)cc3)n[nH]c2=S)cc1` (stereo not given)?
Beta2AR agonist: -6; A1 inh: -0.7; UCH37 inh: 5.7; RanGTP-Imp inh: 2.3; Beta cell apopt: 0; LANA-H2B inh: 1.9; T cruzi inh: 22; Calb FLC: -30

What do the screens show for `CCOc1nc(Nc2ccc(OC)c(Cl)c2)nc(N2CCN(c3ccc(OC)cc3)CC2)n1`?
Beta2AR agonist: 6; A1 inh: -0.2; UCH37 inh: 2.0; RanGTP-Imp inh: inconclusive; Beta cell apopt: 28; LANA-H2B inh: 5.6; T cruzi inh: 46; Calb FLC: 17

How did COc1ccc(S(=O)(=O)Nc2cccc(N(C)S(C)(=O)=O)c2)cc1C do in these assays?
Beta2AR agonist: -5; A1 inh: 0.8; UCH37 inh: 0.2; RanGTP-Imp inh: 1.4; Beta cell apopt: -7; LANA-H2B inh: -2.4; T cruzi inh: -8; Calb FLC: 0

How did O=C(COc1ccc(S(=O)(=O)N2CCCC2)cc1)Nc1ccc2c(c1)OCCO2 do in these assays?
Beta2AR agonist: 3; A1 inh: 1.8; UCH37 inh: 1.6; RanGTP-Imp inh: 0.4; Beta cell apopt: 1; LANA-H2B inh: -7.6; T cruzi inh: -11; Calb FLC: -9

What do the screens show for `Oc1ccc(NC(=S)N=Nc2c(O)[nH]c3ccc(Br)cc23)cc1`?
Beta2AR agonist: 15; UCH37 inh: 4.1; RanGTP-Imp inh: -7.2; T cruzi inh: -48; Calb FLC: -4

Results for Nc1nnc(SCC(=O)Nc2ccc(N3CCOCC3)c(Cl)c2)s1 ?
Beta2AR agonist: 2; A1 inh: 1.5; UCH37 inh: 1.5; RanGTP-Imp inh: 3.6; Beta cell apopt: 6; LANA-H2B inh: -2.6; T cruzi inh: -13; Calb FLC: 10

Results for COc1cc(C=O)cc(Cl)c1OC(=O)N1CCOCC1 ?
Beta2AR agonist: 10; A1 inh: 0.1; UCH37 inh: 3.5; RanGTP-Imp inh: 2.8; Beta cell apopt: -17; LANA-H2B inh: 2.0; T cruzi inh: -4; Calb FLC: -1

How did COc1cccc(-n2nc(-c3ccnn3-c3ccccc3)c(=O)n(C)c2=O)c1 do in these assays?
Beta2AR agonist: 6; A1 inh: 0.1; UCH37 inh: 2.0; RanGTP-Imp inh: -4.5; Beta cell apopt: -8; LANA-H2B inh: -4.0; T cruzi inh: -2; Calb FLC: -8

Results for Cc1ccc(CCN2C(=O)CCC2(C)C(=O)NCc2cccnc2)cc1 (stereo not given) ?
Beta2AR agonist: 1; A1 inh: 0.8; UCH37 inh: 3.9; RanGTP-Imp inh: 3.2; Beta cell apopt: -8; LANA-H2B inh: 6.8; T cruzi inh: -21; Calb FLC: 0

What do the screens show for `O=C(Nc1ccccc1C(=O)O)c1ccc2c(c1)C(=O)N(c1cccc([N+](=O)[O-])c1)C2=O`?
Beta2AR agonist: -10; A1 inh: 0.3; UCH37 inh: 3.9; RanGTP-Imp inh: 1.0; Beta cell apopt: 2; LANA-H2B inh: -3.1; T cruzi inh: -11; Calb FLC: -3

How did COc1ccc(CCC(=O)N2CCN(S(=O)(=O)c3ccc(OC)cc3)CC2)cc1 do in these assays?
Beta2AR agonist: 0; A1 inh: 0.5; UCH37 inh: -0.1; Beta cell apopt: 0; LANA-H2B inh: 2.8

Results for O=C(Nc1nc(-c2ccccc2)nc2ccccc12)c1ccc(F)cc1 ?
Beta2AR agonist: -3; A1 inh: -0.2; UCH37 inh: -33; Beta cell apopt: 3; LANA-H2B inh: 3.6; T cruzi inh: -13; Calb FLC: -13

Results for CC1CCc2c(sc(NC(=O)CCC(=O)O)c2C(=O)NC2CC2)C1 (stereo not given) ?
Beta2AR agonist: 2; A1 inh: 0.1; UCH37 inh: 1.1; RanGTP-Imp inh: 4.4; Beta cell apopt: 2; LANA-H2B inh: 0.8; T cruzi inh: -7; Calb FLC: 0

Results for C[C@@H]1CC=C[C@H]2[C@H]1C(=O)N(Cc1ccccc1)[C@H]2c1ccc(F)c(/C=C/c2ccccc2)c1 ?
Beta2AR agonist: 17; A1 inh: 0.0; UCH37 inh: -2.6; RanGTP-Imp inh: 1.1; Beta cell apopt: 16; LANA-H2B inh: -0.2; T cruzi inh: 30; Calb FLC: 5

How did COc1ccc(C(CNC(=O)c2ccc3c(c2)C(=O)N(CCC(C)C)C3=O)N2CCOCC2)cc1 (stereo not given) do in these assays?
Beta2AR agonist: -1; A1 inh: -1.0; UCH37 inh: 6.5; RanGTP-Imp inh: -1.2; Beta cell apopt: -1; LANA-H2B inh: -2.1; T cruzi inh: -4; Calb FLC: -2

Results for Cc1ccc(CNC(=O)c2ccc(N3CCC4(CC3)CC(c3ccccc3)=NO4)c(NC(=O)c3ccc(Cl)c([N+](=O)[O-])c3)c2)cc1 ?
Beta2AR agonist: 1; A1 inh: 1.2; UCH37 inh: 2.3; RanGTP-Imp inh: -1.9; Beta cell apopt: 1; LANA-H2B inh: -3.3; T cruzi inh: 26; Calb FLC: 5

Results for Cc1cc(=O)c2c(O)c(O)ccc2o1 ?
Beta2AR agonist: -6; A1 inh: inconclusive; UCH37 inh: 1.4; RanGTP-Imp inh: -0.5; Beta cell apopt: 0; LANA-H2B inh: 3.5; T cruzi inh: -4; Calb FLC: -4

How did CCCn1c2ccccc2c2cnn(CC(=O)NCCN(C)C)c(=O)c21 do in these assays?
Beta2AR agonist: 34; A1 inh: -0.3; UCH37 inh: -32; RanGTP-Imp inh: 20*; Beta cell apopt: 8; LANA-H2B inh: 1.6; T cruzi inh: 2; Calb FLC: 14

How did C=CCn1c(SCC)nc(O)cc1=O do in these assays?
Beta2AR agonist: 4; A1 inh: 0.6; UCH37 inh: 5.1; RanGTP-Imp inh: inconclusive; Beta cell apopt: -7; LANA-H2B inh: -7.6; T cruzi inh: 8; Calb FLC: -1

What do the screens show for `Cc1noc(NS(=O)(=O)c2ccc(N/C=C\C(=O)c3ccc(F)cc3)cc2)c1C`?
Beta2AR agonist: -4; A1 inh: -3.3; UCH37 inh: 12; RanGTP-Imp inh: 1.3; Beta cell apopt: -6; LANA-H2B inh: -3.3; T cruzi inh: 0; Calb FLC: -8

Results for CCOC(=O)c1c(NC(=O)C(=O)N/N=C/c2ccccc2O)sc2c1CCCCC2 ?
Beta2AR agonist: 12; A1 inh: 0.2; RanGTP-Imp inh: 1.2; Beta cell apopt: 37; LANA-H2B inh: 2.5; T cruzi inh: 54; Calb FLC: -3

How did CC1CCN(CC(O)COc2ccc(F)cc2)CC1 (stereo not given) do in these assays?
Beta2AR agonist: -2; A1 inh: 0.3; UCH37 inh: 4.3; RanGTP-Imp inh: -14; Beta cell apopt: -2; LANA-H2B inh: -4.6; T cruzi inh: -7; Calb FLC: 1

High-throughput results (PubChem BioAssay)
